Screens as filed in PubChem BioAssay.
ERG Ets-DNA blk: blocks human ERG Ets domain binding to DNA | P11308 | fluorescence polarization, His-ERG Ets domain / labelled DNA | AID 624246 | Potency, µM (titrated, usually from 76.9 µM), without a hit: top-dose FP activity, negative = inhibition, most hits filed as inhibitors | actives 0.028% (n = 370,000); active means well fitted inhibition curve with a large enough effect in the polarisation, with a control signal flat; inconclusive means small, poorly fitted or top-dose-only effect, or effect the other way, or a change in a side signal; inactive means no such curve, though single readings can be large or run the other way; the % refers to the polarisation;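 further: polarization taken with two DNA probes labelled with fluorescein and Texas red; % of control where 0% means no effect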
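His-tagged ERG Ets domain (1 uM in the protein solution; 300mM KCl, 50mM Tris-HCl, 1mM EDTA, 1mM DTT, pH 7.5) received compound, then a probe mix of 5 nM fluorescein-DNA and 100nM Texas-615-DNA. Fluorescence polarization was read for both dyes.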
Pol kappa inh: DNA polymerase kappa (human) inhibition; Q9UBT6; purified Pol kappa, fluorescent DNA synthesis assay, 10 min; Potency, µM (top dose mostly 107 µM), without a hit: top-dose activity, negative = inhibition, hits mostly inhibitors; actives 0.53% (n = 400,000); AID 588579; further: on the % scale 0 is the no-effect control and ±100 the full control effect
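10 nM Pol kappa was preincubated with compounds for 15 min at room temperature. Reaction started with 50 nM (final) substrate. Fluorescence read kinetically at 0 and 10 min.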
POLI inh: DNA polymerase iota (human) inhibition. Q9UNA4. Pol iota fluorescent replication assay, 10 min. Potency, µM (doses to about 115 µM), inactives show at the top dose activity, negative = inhibition, hits mostly inhibitors. actives 1% (n = 390,000)
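Pol iota at 10 nM preincubated 15 min with compounds at room temperature; reaction started with fluorescent substrate, 50 nM final. Fluorescence read kinetically at 0 and 10 min; buffer-only wells as negative control.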
POLB inh: inhibitors of human DNA polymerase beta; Potency, µM (doses to about 114 µM), for the others: at the highest dose activity change, negative = inhibition, actives largely listed as inhibitors; P06746; actives 1.3% (n = 340,000); AID 485314; Pol beta primer extension/strand displacement, fluorescence kinetic; further: on the % scale 0 is the no-effect control and ±100 the full control effect
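Pol beta (10 nM) and compounds were preincubated 15 min at room temperature, then 50 nM substrate (final) started primer extension/strand displacement. Reads were taken at 0 and 10 min; concentration-response data were fitted to a four-parameter Hill equation.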
Apoferritin bind: binds horse apoferritin like a general anesthetic; Potency, µM (top dose mostly 77.5 µM), inactives show at the top dose activity change, negative = displacement, actives largely listed as inhibitors; actives 0.074% (n = 350,000); P02791; apoferritin/1-aminoanthracene competitive binding, fluorescence; further: on the % scale 0 is the no-effect control and ±100 the full control effect; nearly all actives have a fitted effect of over 20% in size
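Concentration-response curves derived by four-parameter Hill fitting of normalized fluorescence, where compounds displaced 1-AMA from 10 uM horse apoferritin following a brief 10 min room-temperature incubation; propofol titration acted as positive control.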
ALOX12 inh: blocks human arachidonate 12S-lipoxygenase. P18054. purified 12hLO, xylenol orange hydroperoxide absorbance. Potency, µM (highest dose often 108 µM), without a hit: top-dose activity change, negative = inhibition, actives largely listed as inhibitors. actives 1.1% (n = 580,000). AID 1671190; further: on the % scale 0 is the no-effect control and ±100 the full control effect
Target sequence (P18054 whole entry, looked up): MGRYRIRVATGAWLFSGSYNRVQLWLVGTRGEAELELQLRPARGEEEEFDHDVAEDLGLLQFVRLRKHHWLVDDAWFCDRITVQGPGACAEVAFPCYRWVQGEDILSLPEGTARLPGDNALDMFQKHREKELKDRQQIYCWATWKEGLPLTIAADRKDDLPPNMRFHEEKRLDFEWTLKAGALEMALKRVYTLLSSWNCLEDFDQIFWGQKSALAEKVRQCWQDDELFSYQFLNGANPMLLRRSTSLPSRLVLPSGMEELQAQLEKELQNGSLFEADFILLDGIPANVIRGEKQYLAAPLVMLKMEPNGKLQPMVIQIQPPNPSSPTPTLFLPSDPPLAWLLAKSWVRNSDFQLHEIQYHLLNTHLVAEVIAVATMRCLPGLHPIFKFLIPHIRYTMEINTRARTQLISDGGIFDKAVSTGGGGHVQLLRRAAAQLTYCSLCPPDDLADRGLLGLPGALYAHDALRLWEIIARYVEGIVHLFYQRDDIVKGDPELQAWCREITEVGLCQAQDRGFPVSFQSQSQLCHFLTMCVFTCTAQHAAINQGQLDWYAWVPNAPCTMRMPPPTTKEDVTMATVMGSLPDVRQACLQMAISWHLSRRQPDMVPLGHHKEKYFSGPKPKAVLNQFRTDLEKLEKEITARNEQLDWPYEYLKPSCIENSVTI
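Purified human 12hLO (150 nM final) in 25 mM Hepes, 0.01% Triton X-100, pH 7.0 was preincubated 15 min at room temperature with compound. Then 40 uM arachidonic acid was added, 30 min. Hydroperoxide was read by Fe-XO absorbance ratio 573/405 nm.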
BLM helicase inh: Bloom syndrome helicase (human) inhibition; P54132; recombinant BLM DNA unwinding, fluorescence dequenching; Potency, µM (top dose mostly 56.1 µM), for the others: top-dose activity change, negative = inhibition, most hits filed as inhibitors; actives 0.2% (n = 350,000); AID 2528;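 further: plate controls were vehicle for no effect and no enzyme for full effect; nearly all actives have a fitted effect of over 35% in size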
APEX1 inh: blocks human APE1 abasic DNA cleavage; recombinant APE1, TAMRA/BHQ-2 abasic DNA cleavage fluorescence; Potency, µM (doses to about 65.8 µM), without a hit: at the top dose activity change, negative = inhibition, usual class: inhibitors; actives 0.35% (n = 350,000); AID 2517;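 further: plate controls were vehicle for no effect and reference inhibitor for full effect; nearly all actives have a fitted effect of over 55% in size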
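Endonuclease cleavage of a quenched abasic-site DNA duplex (50 nM) by APE1 (0.75 nM) was tracked by TAMRA dequenching. Compounds were preincubated with enzyme 15 min at room temperature; data normalized to buffer-only and DMSO wells plus NSC13755 control.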
Starred values were filed as active, the others as inactive; ? = inconclusive; / = no result given; & = joins results of further samples; ! = repeats disagree; [ ] = remark or other dose. Unless noted, the call rests on the fitted dose curve; in most records, active means well fitted curve in the direction sought with a large enough effect; inconclusive means small, poorly fitted or top-dose-only effect, or another doubt; inactive means no such curve, though single readings can be large; an effect the other way counts as inactive or inconclusive. Potency means the concentration at half of the fitted maximal effect. Only part of the results is shown; count on the stated rates, not on these rows.

SMILES	ERG Ets-DNA blk	Pol kappa inh	POLI inh	POLB inh	Apoferritin bind	ALOX12 inh	BLM helicase inh	APEX1 inh
C[C@]12C=CC(=O)C=C1CC[C@H]1[C@@H]3C[C@@H](O)[C@](O)(C(=O)CO)[C@@]3(C)C[C@H](O)[C@@]12F	12%	-8%[60.1 µM]	8%[58.9 µM]	26%	5%	2%	0%	-3%&0%&16%
NC[C@@H](O)c1ccc(O)c(O)c1	/	12µM*	/	/	-2%&2%	/	13µM*!	1µM*
CSc1ccc(C=O)cc1	-12%	0%	13%	/	/	8%	/	-3%&2%
Brc1ccc(-c2ccccc2)cc1	-6%	-10%	5%	/	/	2%	/	-2%&4%
Nc1nc(F)nc2c1ncn2[C@@H]1O[C@H](CO)[C@@H](O)[C@H]1O	7%	1%[19.4 µM]	8%	/	/	-5%	4%	/
O=c1[nH]c(=O)n(C2CC(O)C(CO)O2)cc1I (stereo not given)	7%	-2%	-5%	/	/	5%	/	/
CCCCC1C(=O)N(c2ccccc2)N(c2ccc(O)cc2)C1=O (stereo not given)	-7%	-16%	?	/	0%	?	2%	12%
Cc1cccc([N+](=O)[O-])c1C(=O)O	?	-14%	-8%	/	/	-6%	/	?
CC(=O)[C@H]1CC[C@@H]2[C@H]3CC=C4C[C@@H](O)CC[C@]4(C)[C@H]3CC[C@]12C	/	-2%[12 µM]	/	/	-6%[29.3 µM]	/	0%[21.4 µM]	1%[21 µM]
CC(C)(Oc1ccc([C@@H]2CC2(Cl)Cl)cc1)C(=O)O	/	-3%[12 µM]	/	/	-2%[29.3 µM]	/	-1%[21.4 µM]	0%[21 µM]
CC(=O)OCC(=O)[C@@]1(O)CCC2C3CCC4=CC(=O)CC[C@]4(C)C3C(O)C[C@]21C (stereo not given in full)	/	-9%[60.1 µM]	/	/	3%	/	-9%	18%
C=C1C[C@@]23C[C@]1(O)CC[C@@H]2[C@]12C=C[C@@H](O)[C@](C)(C(=O)O1)[C@H]2[C@H]3C(=O)O	/	-13%[12 µM]	/	/	29%[29.3 µM]	/	4%[21.4 µM]	3%[21 µM]
COc1ccccc1N1CCN(CC(O)COc2cccc3ccccc23)CC1 (stereo not given)	12%&4%	-6%[60.1 µM]	?	15%	1%&-15%	?	-5%&5%&-4%	-7%&4%&-4%&3%&-2%
CCCCC(=O)N(Cc1ccc(-c2ccccc2-c2nn[nH]n2)cc1)[C@H](C(=O)O)C(C)C	/	/	/	-1%	3%	/	-1%	-4%
CC(C)n1cc(/C=C/c2cc[n+](C)cc2)c2ccccc21	17%	-16%	58%[activator]	5%	74%[activator]	?	-10%	7%
CC(=O)O[C@]1(C(C)=O)CC[C@H]2[C@@H]3C=C(C)C4=CC(=O)CC[C@]4(C)[C@H]3CC[C@@]21C	11%	12%	10%	?	-6%&-6%	-1%	2%&-3%	-1%
CCCCCCCCCCCCOS(=O)(=O)O	/	1%[60.1 µM]	/	/	/	?	-8%	1%&-3%
O=C1OC(c2ccc(O)cc2)(c2ccc(O)cc2)c2ccccc21	7%	6%	15%	9%	-10%	?	-12%&-4%&-5%	6%&-5%&-7%
CC(=O)Nc1cccc(C)c1	-7%	-11%	14%	/	/	?	/	8%&17%
N=c1ccn2c(n1)O[C@@H]1[C@H](O)[C@H](CO)O[C@@H]12	/	-6%[19.4 µM]	/	/	/	/	0%	1%
C=C1C[C@@]23C[C@@]1(O)CC[C@@H]2[C@]12C=C[C@@H](O)[C@](C)(C(=O)O1)[C@@H]2[C@@H]3C(=O)O	/	-3%[19.4 µM]	/	/	/	/	3%	-2%
CC(=O)O[C@]1(C(C)=O)CCC2C3C=C(C)C4=CC(=O)CC[C@]4(C)C3CC[C@@]21C (stereo not given in full)	-1%	0%	3%	4%	-2%	2%	-7%	1%

Structures listed so far that bear a hit mark in BLM helicase inh:
SMILES | ERG Ets-DNA blk | Pol kappa inh | POLI inh | POLB inh | ALOX12 inh | BLM helicase inh
NC[C@@H](O)c1ccc(O)c(O)c1 | / | 12µM* | / | / | / | 13µM*!

Arranged by molecular weight (smallest number first): some entries from above
SMILES	ERG Ets-DNA blk	Pol kappa inh	POLI inh	POLB inh	Apoferritin bind	ALOX12 inh	BLM helicase inh	APEX1 inh
CSc1ccc(C=O)cc1	-12%	0%	13%	/	/	8%	/	-3%&2%
N=c1ccn2c(n1)O[C@@H]1[C@H](O)[C@H](CO)O[C@@H]12	/	-6%[19.4 µM]	/	/	/	/	0%	1%
CC(C)(Oc1ccc([C@@H]2CC2(Cl)Cl)cc1)C(=O)O	/	-3%[12 µM]	/	/	-2%[29.3 µM]	/	-1%[21.4 µM]	0%[21 µM]
CC(=O)[C@H]1CC[C@@H]2[C@H]3CC=C4C[C@@H](O)CC[C@]4(C)[C@H]3CC[C@]12C	/	-2%[12 µM]	/	/	-6%[29.3 µM]	/	0%[21.4 µM]	1%[21 µM]
C=C1C[C@@]23C[C@]1(O)CC[C@@H]2[C@]12C=C[C@@H](O)[C@](C)(C(=O)O1)[C@H]2[C@H]3C(=O)O	/	-13%[12 µM]	/	/	29%[29.3 µM]	/	4%[21.4 µM]	3%[21 µM]
O=c1[nH]c(=O)n(C2CC(O)C(CO)O2)cc1I (stereo not given)	7%	-2%	-5%	/	/	5%	/	/
CC(=O)O[C@]1(C(C)=O)CC[C@H]2[C@@H]3C=C(C)C4=CC(=O)CC[C@]4(C)[C@H]3CC[C@@]21C	11%	12%	10%	?	-6%&-6%	-1%	2%&-3%	-1%
COc1ccccc1N1CCN(CC(O)COc2cccc3ccccc23)CC1 (stereo not given)	12%&4%	-6%[60.1 µM]	?	15%	1%&-15%	?	-5%&5%&-4%	-7%&4%&-4%&3%&-2%
C[C@]12C=CC(=O)C=C1CC[C@H]1[C@@H]3C[C@@H](O)[C@](O)(C(=O)CO)[C@@]3(C)C[C@H](O)[C@@]12F	12%	-8%[60.1 µM]	8%[58.9 µM]	26%	5%	2%	0%	-3%&0%&16%
CCCCC(=O)N(Cc1ccc(-c2ccccc2-c2nn[nH]n2)cc1)[C@H](C(=O)O)C(C)C	/	/	/	-1%	3%	/	-1%	-4%
